NS1 function inh = blocks influenza NS1 protein function; S. cerevisiae slowed by influenza A NS1, growth recovery by OD600; Potency, µM (highest dose often 46.1 µM), for inactives: at the top dose activity, positive = more growth; 0.4% of 270,000 active; note: actives are rising curves; nearly all actives have a fitted effect of over 50% in size
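A cell-based growth assay was used: compounds that relieve NS1-induced slow growth of budding yeast raise OD600. Assay medium was yeast nitrogen base with ammonium sulphate and -URA supplement, pH 6.0, with 2% galactose.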
StopGo reporter = lowers the luciferase signal of an FMDV 2A StopGo reporter | Potency, µM (top dose mostly 57.9 µM), for inactives: at the top dose signal change, negative = less light | 1.2% of 410,000 active | human cells with a luciferase reporter of 2A StopGo recoding; control for the full effect not named in the record; active = well fitted falling curve with a large enough effect; inconclusive = small, poorly fitted or top-dose-only effect; inactive = no such curve, though single readings can be large or run the other way; tested in HEK293T cells; note: % is set by controls: 0 for no effect and ±100 for the full control effect; nearly all actives have a fitted effect of over 45% in size; luciferase light after 4 h
Cruzain noTriton = inhibitors of Trypanosoma cruzi cruzain without detergent; Potency, µM, without a hit: max response, negative = inhibition, hits mostly inhibitors; 2.3% of 200,000 active; purified cruzain, Z-FR-AMC fluorescence, no detergent; active = well fitted curve in the direction sought with a large enough effect; inconclusive = small, poorly fitted or top-dose-only effect, or another doubt; inactive = no such curve, though single readings can be large; an effect the other way counts as inactive or inconclusive;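 note: plate controls were enzyme without inhibitor for no effect and buffer without enzyme for full effect; nearly all actives have a fitted effect of over 40% in size; top concentration of the series not given in the record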
Target sequence (P25779 123-467 limits assumed): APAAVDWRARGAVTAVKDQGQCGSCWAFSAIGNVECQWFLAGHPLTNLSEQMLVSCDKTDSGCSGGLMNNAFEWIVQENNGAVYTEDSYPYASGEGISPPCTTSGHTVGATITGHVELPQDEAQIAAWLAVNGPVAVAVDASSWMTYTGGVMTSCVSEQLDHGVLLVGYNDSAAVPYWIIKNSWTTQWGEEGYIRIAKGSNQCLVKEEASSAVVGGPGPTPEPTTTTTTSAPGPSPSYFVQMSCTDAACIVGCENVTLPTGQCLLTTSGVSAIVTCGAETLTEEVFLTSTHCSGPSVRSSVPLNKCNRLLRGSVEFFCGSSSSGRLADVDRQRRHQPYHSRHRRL
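Detergent-free condition (0.00005% Triton X-100) in acetate buffer pH 5.5 with DTT. 1.5 nM enzyme and compound were pre-mixed 15 min, then 2 uM Z-FR-AMC substrate added; reaction progress from fluorescence change between first and third reads (60 s).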
Cruzain inh Det = inhibitors of Trypanosoma cruzi cruzain with detergent | 0.43% of 200,000 active | purified cruzain, Z-FR-AMC fluorescence, 0.01% Triton | Potency, µM, without a hit: max response, negative = inhibition, usual class: inhibitors | P25779; active = well fitted curve in the direction sought with a large enough effect; inconclusive = small, poorly fitted or top-dose-only effect, or another doubt; inactive = no such curve, though single readings can be large; an effect the other way counts as inactive or inconclusive;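 note: plate controls were neutral wells for no effect and buffer without enzyme for full effect; nearly all actives have a fitted effect of over 40% in size; top concentration of the series not given in the record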
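Detergent-containing arm of a paired screen for aggregation-based inhibition: 0.01% Triton X-100 present. Cruzain at 1.5 nM cleaved 2 uM Z-FR-AMC at pH 5.5 with 5 mM DTT; AMC fluorescence gain over 60 s measured activity.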
SARS PLP yeast = inhibitors of SARS-CoV papain-like protease in yeast; S. cerevisiae expressing SARS-CoV PLpro, growth rescue; control for the full effect not named in the record; Potency, µM (top dose mostly 32.9 µM), for the others: at the highest dose activity, positive = growth rescue; 0.19% of 330,000 active; AID 485353; note: 0% is about no effect; nearly all actives have a fitted effect of over 55% in size; growth read by luminescence after 48 h
RE007 growth inh = less growth of the S. pombe RE007 Vpr strain. S. pombe RE007 Vpr strain, BacTiter-Glo ATP luminescence, 24 h; control for the full effect not named in the record. Potency, µM (top dose mostly 92.2 µM), for the others: top-dose activity change, negative = less growth. 0.21% of 360,000 active; active = well fitted falling curve with a large enough effect; inconclusive = small, poorly fitted or top-dose-only effect; inactive = no such curve, though single readings can be large or run the other way;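 note: % is set by controls: 0 for no effect and ±100 for the full control effect; nearly all actives have a fitted effect of over 50% in size; the assay follows cell death caused by Vpr and the record does not say whether a fall means rescue or toxicity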
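Fission yeast RE007 carrying one integrated HIV-1 vpr copy, seeded at OD 0.01 in PMG+AL medium with 23 nL pinned compound. Grown 24 h at 30 degrees; viability read by BacTiter-Glo luminescence after 5 min.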
Marburg entry inh = Marburg virus entry inhibition | 1.8% of 300,000 active | Marburg virus pseudotyped entry inhibition, cell reporter; control for the full effect not named in the record; about a third of the inactives were read at about 46 µM | Potency, µM (doses to about 37.8 µM), for the others: at the top dose activity change, negative = inhibition, usual class: inhibitors; active = well fitted inhibition curve with a large enough effect; inconclusive = small, poorly fitted or top-dose-only effect, or effect the other way; inactive = flat fitted curve, though single readings scatter; tested in HEK293 cells; about a fifth of its hits are not listed in these tables; note: % is set by controls: 0 for no effect and ±100 for the full control effect; luciferase read-out
Lassa entry inh = Lassa virus entry inhibition | Lassa virus pseudotype entry inhibition, cell reporter; control for the full effect not named in the record | Potency, µM (top dose mostly 37.9 µM), for inactives: top-dose activity change, negative = inhibition, usual class: inhibitors | 1.2% of 300,000 active; active means well fitted inhibition curve with a large enough effect; inconclusive means small, poorly fitted or top-dose-only effect, or effect the other way; inactive means flat fitted curve, though single readings scatter; tested in HEK293 cells; note: % is set by controls: 0 for no effect and ±100 for the full control effect; nearly all actives have a fitted effect of over 50% in size; luciferase read-out
The depositor's hits bear a star; ? = inconclusive; . = not tested or not shown; & = joins results of further samples; [ ] = remark or other dose. Unless noted, calls come from the whole dose curve; as a rule, active means well fitted rising curve with a large enough effect; inconclusive means small, poorly fitted or top-dose-only effect; inactive means no such curve, though single readings can be large or run the other way. Potency is the fitted concentration of half-maximal effect. Compounds as they come (roughly 4.6% active in at least one column).

Compound,SARS PLP yeast,Cruzain noTriton,NS1 function inh,Lassa entry inh,StopGo reporter,RE007 growth inh,Marburg entry inh,Cruzain inh Det
Cn1c2ccccc2n2c(=O)cc(-c3ccccc3)c(C#N)c12,1%,.,-1%,15%,24%,3%,-10%,.
CCCC1CC(C)(c2csc(Nc3ccc(OCC)cc3)n2)OC1=O (stereo not drawn),-76%,0%,-3%,.,-21%,1%,.,-13%
CC(C)(C)Nc1nc(Cl)nc(NCc2ccccc2)n1,-8%,.,-7%,?,?,28%,?,.
CCOc1ccccc1C(=O)N1CCN=C1SCc1cccnc1,-1%,-14%,-4%,21%,-21%,-1%,-3%[46.1 µM],0.3%
CC(C)Cc1csc(NC(=O)C(C)C)c1C(=O)O,8%,.,-1%,.,-22%,8%,.,.
CCN(CC)c1ccc(-n2nc3cc(C)c(NC(=O)c4ccccc4C)cc3n2)c(C)c1,.,?,.,?,-1%,.,?,-8.0%
CC(=O)Oc1ccc2c(c1)Oc1cc(OC(C)=O)ccc1C21OC(=O)c2ccccc21,8%,2%,2%,-6%,-10%,-3%,15%,-15%
CCCCCC(=O)NC(CC(=O)OC)c1ccc2c(c1)OCO2 (stereo not drawn),1%,.,.,20%[46.1 µM],10%,-12%,?,.
Cc1ccc(C)c(OCC(=O)N(Cc2ccccc2)c2c(N)n(Cc3ccccc3)c(=O)[nH]c2=O)c1,.,.,.,-27%,-25%,-6%,2%,.
COC(=O)c1cc(-c2ccc(Cl)cc2)c2c(=O)[nH]c(=O)n(C)c2n1,.,7%,.,-4%[46.1 µM],-18%,.,-8%[46.1 µM],-2.3%
COc1ccc2c(c1)C13CCN(C)C(C2)C1CCC1(C3)OCCO1 (stereo not drawn),.,.,.,3%[46.1 µM],-25%,-24%,19%,.
COc1cc(OC)cc(-c2nc3ccccc3c(=O)n2OC(=O)c2ccccc2C)c1,?,-4%,-1%,11µM*,-26%,2%,?,-4.6%
CC(C)[C@H](NC(N)=O)C(=O)Nc1ccc(Oc2ccccc2)cc1,2%,.,-3%,?,?,-3%,-30%[46.1 µM],.
c1ccc(CCOn2ccnc2)cc1,0%,.,7%,26%[46.1 µM],-6%,-10%,0%[46.1 µM],.
CS(=O)(=O)c1sc(C#N)c2c1C(=O)CC(c1ccccc1)C2 (stereo not drawn),-6%,.,-71%,.,11µM*,-4%,.,.
O=S1(=O)CCOCCN1Cc1ccccc1,-2%,.,-5%,.,-11%,-6%,.,.
Cc1ccc(NC(=O)CSCC(=O)Nc2ccccc2C(=O)NC2CC2)cc1,-3%,.,.,-24%,-18%,5%,20%,.
O=C(NCc1ccc2c(c1)OCO2)c1ccc(COc2cc(Cl)ccc2Cl)o1,-10%,-4%,-6%,3%,-9%,1%,?,-14%
O=C(NCC1COc2ccccc2O1)c1ccccc1 (stereo not drawn),3%,-3%,-85%,3%,51%,18%,15%,6.1%
CCc1cc(=O)oc2cc(OCC(=O)N3CCCc4ccccc43)ccc12,2%,-2%,9%,?,.,14%,10%,-3.6%
Cc1ccc(S(=O)(=O)N(C)C)cc1NC(=O)CN1C(=O)NC2(CCCCCC2)C1=O,-3%,.,-1%,6%,-12%,-17%,-8%,.
COCCCNC(=S)Nc1ccc2nc(N3CCOCC3)cc(C)c2c1,-1%,.,-3%,.,-4%,0%,.,.
COc1ccccc1C(CNC(=O)C1CCN(C(=O)Nc2ccccc2)CC1)N1CCCC1 (stereo not drawn),3%,.,.,6%,-7%,-8%,-19%,.
O=C(Nc1ccc(C(F)(F)F)cc1)c1ccccc1Br,-6%,.,.,13%,35%[activator],0%,12%[46.1 µM],.
COC(=O)C1CCN(C(=O)COC(=O)c2oc3ccc(OC)cc3c2C)CC1,1%,.,-5%,?,-11%,-5%,1%,.
COc1ccc(-n2nc3ccc(NC(=O)c4ccc(C#N)cc4F)cc3n2)cc1Cl,.,7%,.,-5%[46.1 µM],-24%,.,?,0.2%
Cc1cnc(C(=O)OCC(=O)N(CC(C)C)C2CCS(=O)(=O)C2)cn1 (stereo not drawn),1%,.,.,-1%,-21%,1%,-13%,.
CC1CCCC(NC(=O)CSc2nnc(-c3cccnc3)n2N)C1C (stereo not drawn),-3%,.,.,22%,-22%,-5%,-1%,.
COc1ccc(C2C(C(=O)c3ccc(C)o3)=C(O)C(=O)N2Cc2cccnc2)cc1 (stereo not drawn),2%,.,-9%,2%,2%,0%,-9%[46.1 µM],.
OCCN1CN=C(Nc2nc3ccccc3s2)NC1,4%,-24%,-6%,3%,11%,12%,26%,-29%
Cc1ccc(/C=C/C(=O)N2CCN(S(=O)(=O)c3ccc(C)c(C)c3)CC2)o1,-33%,-13%,-6%,-4%,-9%,25%,?,-6.0%
C/C(=N\N=C\c1cccc(F)c1)c1nnn(-c2nonc2N)c1C,11%,-28%,15%,7%,6%,-1%,21%,-1.1%
CC1CCCN(S(=O)(=O)c2cccc(-c3cn4cccnc4n3)c2)C1 (stereo not drawn),3%,?,-17%,9%,2%,-5%,-2%,-19%
Cc1cnc(C(=O)OCC(=O)Nc2c(Cl)cc(Cl)cc2Cl)cn1,-2%,.,.,9%,-23%,-1%,6%,.
COc1ccc(NC(=O)/C=C2\SC(=O)NC2=O)cc1,2%,.,.,.,9%,7%,-19%[46.1 µM],.
Cc1cccc(C)c1NC(=O)CNC(=O)c1ccc2nc[nH]c2c1,-2%,.,.,-11%,8%,18%,-2%[46.1 µM],.
CC(C)CNC(=S)Nc1ccccc1F,-10%,-5%,?,-1%,16%,-2%,2%,4.8%
CON(C)c1nc(OCCNC(=O)COc2ccc(Cl)cc2C)nc(N(C)C)n1,10%,?,-18%,-26%,?,-15%,?,1.8%
Cc1ccc(-c2noc(C3CCCN(C(=O)c4c(F)cccc4F)C3)n2)cc1 (stereo not drawn),-3%,4%,-59%,25%[14.3 µM],-27%,7%,-5%,-5.3%
COc1ccc(Br)c(C(=O)Nc2cc3c(cc2N2CCCC2)n(C)c(=O)c(=O)n3C)c1,.,-9%,.,-17%[46.1 µM],-16%,.,.,-7.0%
COc1ccc(CCNc2c(C=O)c(=O)[nH]c3ccccc23)cc1OC,1%,.,6%,.,-20%,1%,.,.
COc1ccc(NS(=O)(=O)c2cc(NC(=O)C3CC3)ccc2N2CCCCC2)cc1,-3%,.,.,?,42%[activator],11%,?,.
CCCCn1c(O)c(C(CC)=Nc2ccc(C(=O)O)cc2)c(=O)[nH]c1=O,-11%,-19%,-54%,-22%,-2%,3%,26%,-2.2%
Cc1cccc(C)c1NC(=O)C(C)Sc1n[nH]c(-c2ccncc2)n1 (stereo not drawn),0%,.,-1%,13%,5%,-3%,15%,.
Cc1ccc(-n2cnc3cc(C(=O)NCCC4=CCCCC4)ccc32)c(C)c1,.,-8%,.,?,-10%,.,.,0.3%
COc1nccnc1NS(=O)(=O)c1ccc(N=Cc2c(C)[nH]n(-c3ccc(C)c(C)c3)c2=O)cc1,-24%,?,3%,17%,.,?,2%,-8.4%
Cc1ccc(C(=O)N/N=C/C=C/c2ccccc2)cc1,-1%,.,0%,-7%[46.1 µM],11%,0%,-7%[46.1 µM],.
O=C(CN1C(=O)COc2ccc(S(=O)(=O)N3CCOCC3)cc21)N1CCN(c2ccc(Cl)cc2)CC1,.,?,.,-5%[46.1 µM],-19%,.,2%[46.1 µM],-5.5%
O=C(COC(=O)CCC(=O)c1ccccc1)Nc1nnc(-c2ccccc2)o1,4%,.,.,-1%,-9%,0%,-4%,.
O=C(CCc1nnc(Cc2ccc3c(c2)OCO3)o1)NC(c1ccccn1)C(F)(F)F (stereo not drawn),-1%,.,-1%,.,0%,16%,.,.
Cc1cc(C)nc(SCc2cn3ccccc3n2)n1,1%,.,5%,.,15%,5%,.,.
O=C(Cn1c(=O)c2cccn2c2ccc(F)cc21)N1CCN(c2ccc(F)cc2)CC1,-7%,-5%,4%,4%[46.1 µM],0%&-7%,-23%,.,-0.9%
O=C(Cn1cc2c(n1)CCCC2)N1CCOCC1,3%,-1%,-1%,.,8%,3%,.,2.4%
CCNC(=S)NCCC1=c2ccccc2=N/C1=C\c1c(O)n(C)c(=O)n(C)c1=O,-1%,.,5%,.,40µM*,-6%,.,.
CCOC(=O)C(=O)NCC(c1cccs1)S(=O)(=O)c1ccc(Cl)cc1 (stereo not drawn),4%,.,6%,.,-18%,13%,.,.
CCOC(=O)C1CCCN(C(=O)CCc2nnc(-c3ccc(C(C)=O)s3)o2)C1 (stereo not drawn),-15%,.,2%,.,18%,-11%,.,.
Cn1c(C(=O)OC(C(=O)NC2CCCCC2)c2cccnc2)cc2sccc21 (stereo not drawn),26%,?,-5%,-12%,?,-10%,-11%,7.3%
O=S(=O)(Nc1ncnc2c1oc1ccccc12)c1ccc(Cl)s1,11%,-2%,1.1µM*,29%,62%[activator],16%,5%,-4.3%
CCc1ccc(OCC(=O)N2CC(C(N)=O)Oc3ccccc32)cc1 (stereo not drawn),5%,.,3%,3%,8%,-4%,14%[46.1 µM],.
CCCOC(=O)COC(=O)c1ccccc1NC(=O)c1ccccc1,-6%,16%,-25%,12%,-19%,-4%,1%,-2.6%
O=c1c2c3c(sc2nnn1CCCCOc1ccc(Cl)cc1)CCCC3,.,1%,.,14%[46.1 µM],-20%,.,3%[46.1 µM],9.2%
O=C1c2ccccc2C(=O)N1CCCCSc1nnc2ccccn12,1%,-6%,-18%,19%,33%[activator],-18%,21%,0.6%

Screening data from PubChem.
